# A1 inh = caspase 3/7 activation in MEF A1-2A-BIM cells, primary screen, A1 inhibitor project, cell-based, luminescence, HTS; caspase activation, % (no concentration beside the values); Caspase-Glo 3/7 luminescence, 3 h; percent of clofoctol response, vehicle zero; 330,000 compounds, 0.066% hits;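 active = over half of replicate activation scores above 10%, or exactly half above 10 with the replicate mean above 10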;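 note: wells of about 30 µL received 50 nL stock; many hits fall short of the cut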
# Ecoli rRNA inh = reduced GFP signal of wild-type E. coli, primary screen, bacterial rRNA inhibitor project, GFP/RFP fluorescence, OD600, single point | AID 720706, 2013 | GFP signal change (wild-type ribosome), % (no concentration beside the values) | 350,000 compounds, 1.6% hits | E. coli WT GFP vs humanized-ribosome RFP mutants, 24 h; active compounds read low; DMSO median 0, no signal -100;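 active = significant combined selectivity score with lowered wild-type GFP, culture density cut under 30%, mutant RFP and density less affected; inactive = any of these conditions unmet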; note: one replicate is shown; some compounds called inactive have numbers as strong as hits
# T cruzi repl = inhibitors of intracellular T. cruzi growth, primary screen, luminescence, NIH3T3 host cells; AID 1885, 2009; inhibition, % (concentration not given with the values); 300,000 compounds, 1.4% hits; T. cruzi beta-gal in NIH3T3, 90 h;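 active = mean inhibition across valid replicates above about 55%, limit read from the data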;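 note: signal also drops with host cell toxicity which is not excluded here; 0% = plate median of DMSO wells and 100% = zero luminescence signal; higher percent means less beta-gal luminescence so fewer parasites; stock transfer was 50 nL into about 50 µL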
# Calb FLC = C. albicans growth inhibition with fluconazole, primary screen, CaCi-2 strain, Alamar Blue fluorescence | C. albicans CaCi-2 (fluconazole-resistant clinical isolate) + fluconazole, 48 h | growth inhibition, % (test concentration not listed) | 300,000 compounds, 0.57% hits | AID 1979, 2009;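 active = most replicates above 75%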;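 note: all wells also contain fluconazole at 8 µg/ml as a sub-toxic cotreatment; 0% = median of DMSO wells and 100% = median of geldanamycin control wells; wells of about 8 µL received 7.5 nL stock; the first replicate is given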
# Beta2AR agonist = beta2AR agonists driving receptor internalization, primary screen, cell-based, FAP fluorogen, flow cytometry; Beta-2 adrenergic receptor (Homo sapiens), P07550; Am2.2-beta2AR cells; reference of the scale not given here; response, % (no concentration beside the values); 340,000 compounds, 0.43% hits; AID 504454, 2011;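 active = response above a set limit, near 3 SD of response in nonfluorescent compounds, cut at about 42% in these data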;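 note: stock transfer was 100 nL into about 11 µL; a reference agonist was the positive control; negative values mostly stem from fluorescent compounds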
# Target sequence (P07550 whole entry, looked up): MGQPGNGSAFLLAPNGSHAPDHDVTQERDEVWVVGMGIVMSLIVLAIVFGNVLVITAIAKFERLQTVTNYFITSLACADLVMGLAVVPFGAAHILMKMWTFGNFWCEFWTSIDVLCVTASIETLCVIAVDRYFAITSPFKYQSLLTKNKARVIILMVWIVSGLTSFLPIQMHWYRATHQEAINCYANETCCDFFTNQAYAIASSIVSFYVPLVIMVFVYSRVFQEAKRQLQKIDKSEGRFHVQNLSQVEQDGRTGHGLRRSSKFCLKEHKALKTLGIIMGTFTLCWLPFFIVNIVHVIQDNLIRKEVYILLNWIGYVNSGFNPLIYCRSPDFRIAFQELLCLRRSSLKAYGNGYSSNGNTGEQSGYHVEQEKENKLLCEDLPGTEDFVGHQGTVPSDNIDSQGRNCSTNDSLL
# Beta apoptosis = inhibitors of cytokine-induced beta cell apoptosis, primary screen, luminescence; INS-1E cytokine-induced death, ATP luminescence, 48 h; percent of positive-control rescue, neutral wells zero; protection from apoptosis, % (test concentration not listed); 300,000 compounds, 0.8% hits;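 active = all replicates at 75% or more, or half of them and the mean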;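 note: 0% = cytokine-treated negative control wells and 100% = positive control rescue; higher means more ATP so stronger rescue from cytokine killing; wells of about 40 µL received 100 nL stock; the first replicate is given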
# ALR H2O2 inh = inhibitors of human ALR sulfhydryl oxidase, primary screen, biochemical, H2O2 detection, HRP-luminol luminescence, single point | purified ALR, DTT oxidation | FAD-linked sulfhydryl oxidase ALR (Homo sapiens), P55789 | inhibition, % (concentration not given with the values) | 290,000 compounds, 3.8% hits | AID 485317, 2010;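 active = mean and each replicate at 75% or more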;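 note: stock transfer was 7.5 nL into about 7.5 µL; 0% = neutral wells and 100% = wells with inactivated enzyme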
# Target sequence (P55789 whole entry, looked up): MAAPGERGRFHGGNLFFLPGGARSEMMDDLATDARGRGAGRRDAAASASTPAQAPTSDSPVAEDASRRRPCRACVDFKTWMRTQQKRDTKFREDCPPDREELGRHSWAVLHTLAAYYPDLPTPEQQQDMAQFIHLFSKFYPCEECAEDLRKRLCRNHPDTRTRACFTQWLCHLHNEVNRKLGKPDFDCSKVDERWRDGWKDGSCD
# LANA-H2A inh = blockers of LANA interaction with H2A/H2B – biochemical, FP readout, HTS, primary screen; cell-free LANA-H2A/H2B peptide, fluorescence polarization; inhibition, % (concentration not given with the values); AID 2629, 2010; 320,000 compounds, 0.6% hits; in the data active = inhibition mostly above about 10%, no sharp cut-off; inactive = mostly below about 6.7%;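 note: stock transfer was 7.5 nL into about 10 µL; 0% = median of vehicle wells and 100% = median of positive control wells; one replicate is shown; the record names a cut of 25% in any replicate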
# Ecoli rRNA inh OD600 = further read-out of Ecoli rRNA inh, marked with its call; OD600 change, %; measured here: OD600 growth;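 optical density of the mix in the first replicate; 0 = DMSO median and -100 = no signal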
# Ecoli rRNA inh RFP = further read-out of Ecoli rRNA inh, marked with its call; RFP signal change, %; measured here: RFP humanized mutant strains;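 first replicate; 0 = DMSO median and -100 = no signal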
# Active calls of the source: *; / = no result given; & = joins results of further samples.
SMILES,A1 inh,Ecoli rRNA inh,Ecoli rRNA inh OD600,Ecoli rRNA inh RFP,T cruzi repl,Calb FLC,Beta2AR agonist,Beta apoptosis,ALR H2O2 inh,LANA-H2A inh
O=C(CNC(=O)c1ccncc1)N/N=C/c1ccc(Br)cc1,-0.1,/,/,/,0,-5,9,4,-5,-2.2
COc1ccc([C@H]2CC(=O)C=C(c3cccc(OC)c3OC)C2)cc1OC,-1.8,-9,-17,0.6,/,/,-4,-3,-4,-3.9
O=C(Cn1nc(C(=O)O)c2ccccc2c1=O)Nc1cccc(S(=O)(=O)N2CCCCCC2)c1,-0.7,4,15,17,/,/,3,2,-3,-4.1
C/C=C/c1ccc(OCCCNC(C)CC)c(OC)c1 (stereo not drawn),0.1,/,/,/,3,-15,8,-7,/,1.3
Cc1cc(N(C)N)nc(NC(=O)NS(=O)(=O)c2ccccc2Cl)n1,0.3,9,8,-1.5,-11,-2,-12,-4,-20,3.4
COc1ccc(-c2cc(=O)oc3c(C)c(OC(C)C(C)=O)ccc23)cc1 (stereo not drawn),1.5,-9,-37,-2.0,27,3,3,6,-7,-3.6
COc1ccc(/C=C2\Sc3ccc(C(=O)NCCCN4CCCC4)cc3N(C)C2=O)cc1OC,0.2,0,1,7.9,34,-4,16,/,-11,0.7
CC(C)(C)OC(=O)N/N=C/c1ccc(Br)cc1,0.7,1,0,0.3,6,-15,-32,-1,-3,-0.5
Cc1ccc(Cc2nc(-c3ccccn3)no2)cc1,-3.2,/,/,/,-14,5,4,-2,-8,0.6
Cc1cc2c(C)ccc(C)c2nc1SCC(=O)c1cccs1,0.5,/,/,/,0,-11,7,-4,-10,1.2
CCOc1cc(C2C(C#N)=C(N)Oc3n[nH]c(-c4ccccc4)c32)ccc1O (stereo not drawn),-0.2,/,/,/,-4,7,2,-3,97*,-2.1
Cc1ccc(S(=O)(=O)N[C@H](C(=O)OCC(=O)NC(=O)Nc2ccc3c(c2)OCCO3)C(C)C)cc1,-0.4,/,/,/,-22,2,-4,1,-18,-3.9
COc1cc2c(cc1OC)C(c1ccc3c(c1)OCO3)CC(=O)N2 (stereo not drawn),0.0,-2,-5,-6.3,-7,-19,-4,-3,-6,-1.6
Nn1cnnc1SCC(=O)Nc1ccc(C2CCCCC2)cc1,0.3,/,/,/,-1,-5,-2,-2,10,-2.5
CC(=O)c1sc(NC(=O)COc2ccc(C)c(C)c2)nc1C,0.0,9,10,7.3,-5,2,-2,-10,-7,1.0
Cc1ccc(COc2ccsc2-c2n[nH]c(=S)n2C)cc1,-0.5,/,/,/,2,8,-6,-3,5,-5.6
Cc1ccccc1NS(=O)(=O)c1ccc(C(=O)NCC(c2ccco2)N(C)C)cc1 (stereo not drawn),0.8,1,4,0.6,-2,-5,-5,-4,1,20*
CSCC[C@H](NC(=O)OCc1ccccc1)C(=O)O,-0.3,/,/,/,-3,0,5,-1,-4,4.5
CCOc1ccc(N(CC(=O)N2CCCCCC2)S(=O)(=O)c2ccc(C)cc2)cc1,0.1,-10,-22,7.2,12,17,-3,/,-5,-7.0
COc1ccc(C(=O)OC2CCN(C)CC2)cc1,0.6,/,/,/,55*,-8,-3,-6,-1,1.1
Cn1cc(/C=C/C(=O)N2CCCC(C(=O)c3ccc(C(C)(C)C)cc3)C2)cn1 (stereo not drawn),-0.4,-20,-18,-0.4,7,4,-8,7,-2,0.9
O=C(CSc1nnc(-c2cccnc2)n1-c1ccc(SC(F)F)cc1)N1CCCc2ccccc21,-0.1,6,8,0.8,23,/,4,14,1,-6.8
CC(C(=O)Nc1ccc(S(=O)(=O)N2CCOCC2)cc1)N(c1ccccc1)S(C)(=O)=O (stereo not drawn),0.1,/,/,/,0,26,-5,-2,/,-1.1
O=C(c1ccccc1Cl)N(C(=O)c1ccccc1Cl)c1nccc(-c2cccs2)n1,-1.0,/,/,/,-10,19,-6,-9,-3,4.9
COCCn1nnnc1C(C(C)C)N1CCOCC1 (stereo not drawn),0.7,/,/,/,-21,8,-7,0,-8,2.9
COCCC(=O)N1CCC(Oc2ccc(C(=O)N(C)C(C)c3ccon3)cc2)CC1 (stereo not drawn),0.6,12,15,0.9,-4,-5,-12,-2,-5,-0.1
COCCCn1cnnc1SCc1nc2sc(C(C)=O)c(C)c2c(=O)[nH]1,0.0,2,3,-1.3,3,1,-5,-5,0,5.1
CSCCC1NC(=O)N(CC(=O)Nc2cc(C)on2)C1=O (stereo not drawn),-0.5,-1,10,-0.1,/,/,/,3,-3,6.4
CCOc1ccc(C(=O)N/N=C/c2ccc(SC)cc2)cc1,2.4,22,11,-4.6,0,-18,-2,6,-2,1.7
CN(c1ccccc1C(=O)N1CCOCC1)S(C)(=O)=O,-0.5,/,/,/,-5,9,-6,-2,-4,1.7
COc1ccc(S(=O)(=O)Nc2ccc3c(c2)C(=O)N([C@H](C)CO)C[C@H](C)[C@@H](CN(C)C(=O)Nc2c(C)noc2C)O3)cc1,1.2,8&3,11&4,-0.1&-1.2,/,/,-6,-4,-2,2.5
COc1ccc(S(=O)(=O)N2CCN(CC(O)CN3CCOCC3)CC2)cc1 (stereo not drawn),1.0,3,8,-2.2,/,/,-7,-1,0,2.7
CCOc1ccc(C(C)=O)cc1N1C(=O)C2C3C=CC(C3)C2C1=O (stereo not drawn),-0.3,/,/,/,0,2,7,-4,3,-6.5
Cc1ccc(S(=O)(=O)NCCC(=O)O)cc1,0.2,/,/,/,-23,-9,4,-12,-23,-0.2
COc1ccc(C(CNS(=O)(=O)c2ccc(NC(C)=O)c(OC)c2)N2CCCC2)cc1 (stereo not drawn),1.4,19,7,4.8,/,/,-2,-2,-5,-7.2
O=C(O)c1nnn(-c2cccc(C(F)(F)F)c2)c1-c1ccccc1,0.6,-13,-17,-4.1,5,-3,-5,-3,-12,1.5
O=CN1CCN(C2CC(=O)N(c3ccc(Br)cc3)C2=O)CC1 (stereo not drawn),-0.2,/,/,/,-7,2,3,-11,17,-0.6
COc1ccccc1OCC(=O)N/N=C1/SCC(=O)N1Cc1ccccc1,0.3,/,/,/,-9,0,1,1,-7,2.4
Cc1ccc(SCC(=O)NCCc2ccc(F)cc2)cc1,1.4,-18,-18,-5.3,7,19,2,/,-6,1.4
CCN(C(=O)c1cnc(OC)cc1C(F)(F)F)c1ccc(Cl)cc1Cl,0.4,3,5,0.0,-5,-5,-8,7,/,-3.9
C#CCN(C)Cc1ccccc1,1.7,/,/,/,6,/,1,0,-12,-3.8
CCC(C)NC(=O)c1cn(-c2cccc(OC)c2)c(=O)c2ccccc12 (stereo not drawn),0.0,6,18,0.4,-8,0,7,1,0,-4.4
O=C(CN1CCN(Cc2ccccc2Cl)CC1)N/N=C/C=C/c1ccccc1[N+](=O)[O-],1.0,-9,-4,3.1,8,3,-1,0,-17,5.0
O=C(O)Cc1ccc2[nH]c3ccc(CC(=O)O)cc3c2c1,0.3,/,/,/,-25,1,11,-3,-24,0.1
C=CCNc1nc(N)c([N+](=O)[O-])c(NCCO)n1,1.0,9,7,-0.2,-14,10,-1,-3,12,4.6
O=C(O)C(Cc1ccccc1)N1C(=O)CCC1=O (stereo not drawn),0.5,8,15,-7.2,-16,-13,0,-3,/,-1.4
Cc1ccc(S(=O)(=O)Nc2ccc(C(=O)NCCCn3ccnc3)cc2)cc1[N+](=O)[O-],0.9,13,5,1.5,/,/,-5,8,0,4.2
COC(=O)c1ccccc1Sc1c(/C=N/OC(=O)c2ccccc2)c(C(F)(F)F)nn1C,0.6,/,/,/,11,-28,-4,-1,-2,-0.1
CCOc1cccc(C2/C(=C(\O)c3ccc4c(c3)OCCO4)C(=O)C(=O)N2Cc2ccncc2)c1 (stereo not drawn),0.9,-2,-3,-2.9,-18,2,1,-5,3,3.6
C/C(=N/NC(=O)c1cnccn1)c1cccs1,-5.7,/,/,/,-6,0,0,-4,-1,2.6
CCc1ccc(C(C(=O)NC2CCCC2)N(Cc2cccnc2)C(=O)c2csnn2)cc1 (stereo not drawn),-0.5,/,/,/,-8,2,6,5,-11,-2.9
Cc1ccccc1C(=O)N1CCCN(C(=O)c2ccccc2C)CC1,-1.1,/,/,/,-13,-6,-1,/,/,-1.4
CCOC(=O)Cc1csc(NC(=O)COc2ccc3ccccc3c2)n1,1.0,/,/,/,-3,-4,6,0,-26,2.5
COc1ccc(NC(=O)CCCn2c(=O)c3sccc3n(Cc3ccccc3C)c2=O)cc1,0.6,/,/,/,18,3,7,2,-5,-6.2
COc1cc(Nc2ncnc(N)n2)cc(OC)c1,0.6,-34,-31,-8.6,-19,1,4,0,-17,2.6
CC1CC(C)(C)NC(=S)N1CCC(=O)NCc1ccc(Cl)cc1 (stereo not drawn),2.7,7,3,2.7,-11,7,-1,0,4,1.1
Cc1cccn2c(=O)c3cc(C(=O)NCC4CCCO4)c(=N)n(Cc4cccnc4)c3nc12 (stereo not drawn),-0.6,-5,-4,-8.8,/,/,-13,9,35,-25
CCOc1ccc(C(O)(c2ccccc2OC)C(CN2CCCC2)c2ccccc2)cc1 (stereo not drawn),-0.1,-12,-16,10,29,0,3,9,0,-4.0
O=S(=O)(Nc1ccc2c(c1)OCO2)c1ccc(Br)s1,-0.1,/,/,/,-1,-2,-1,3,43,2.3
COc1ccc(S(=O)(=O)N(C)C)cc1NC(=O)CSC(C)C(=O)Nc1cc(C)on1 (stereo not drawn),2.7,18,17,-1.3,/,/,-1,-6,/,0.3

# Copied from the list:
# `Cc1ccc(S(=O)(=O)Nc2ccc(C(=O)NCCCn3ccnc3)cc2)cc1[N+](=O)[O-]` in LANA-H2A inh: 4.2
# `C=CCNc1nc(N)c([N+](=O)[O-])c(NCCO)n1` in Beta apoptosis: -3

# Continued:
SMILES,A1 inh,Ecoli rRNA inh,Ecoli rRNA inh OD600,Ecoli rRNA inh RFP,T cruzi repl,Calb FLC,Beta2AR agonist,Beta apoptosis,ALR H2O2 inh,LANA-H2A inh
CCN1C(=O)CC(N2CCN(CC(=O)NC(C)C)CC2)C1=O (stereo not drawn),-0.1,/,/,/,-4,-3,1,-2,-13,-1.6
O=C(NCc1cccnc1)C1CC(c2ccc(Cl)c(Cl)c2)=NO1 (stereo not drawn),0.3,-20,-14,-2.2,7,2,-15,4,-13,-1.9
CN(C(=O)c1ccncc1)C1CCCN(Cc2ccccc2F)C1 (stereo not drawn),-0.5,4,5,-0.5,2,3,-3,/,/,2.5
COc1cc(NC(=O)CSc2nnc(C)s2)cc(OC)c1OC,-0.1,/,/,/,-14,1,-1,1,-12,0.5

# Some of the compounds tested; rates above refer to the full screens.
